Bioassay records: PubChem, National Center for Advancing Translational Sciences (NCATS)
Pin1 inh: qHTS Assay to Find Inhibitors of Pin1 | hit rate 0.009% among 390,000 | Pin1 FP peptide displacement, HiFluor488, 10 min | Peptidyl-prolyl cis-trans isomerase NIMA-interacting 1 (Homo sapiens), Q13526 | Potency, µM (highest dose often 115 µM), for the others: at the highest dose activity, negative = inhibition, actives largely listed as inhibitors | AID 504891, 2011; active means well fitted inhibition curve with a large enough effect in the polarisation, with a control signal flat, not every such curve was filed as active; inconclusive means small, poorly fitted or top-dose-only effect, or effect the other way, or a change in a side signal; inactive means no such curve, though single readings can be large or run the other way; the % refers to the polarisation; further: potency means the concentration at half of the fitted maximal effect; on the % scale 0 is the no-effect control and ±100 the full control effect
Target sequence (Q13526 whole entry, looked up): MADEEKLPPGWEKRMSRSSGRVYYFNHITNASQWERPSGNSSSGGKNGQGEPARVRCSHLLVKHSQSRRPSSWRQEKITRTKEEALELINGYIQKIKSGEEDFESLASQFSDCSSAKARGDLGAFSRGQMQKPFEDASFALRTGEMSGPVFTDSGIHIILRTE
PI4K2A block: qHTS for small molecular inhibitors of PI4K2A; Phosphatidylinositol 4-kinase type 2-alpha (Homo sapiens), Q9BTU6; purified PI4K2A, ADP-Glo luminescence, 1 h; active compounds read low; activity change, negative = inhibition, % at 76.9 µM; hit rate 0.13% among 420,000; AID 1346378, 2018; in the data active means activity change below about -50%; inconclusive means mostly about -30% to -49%;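 further: -100% = wells without enzyme as full effect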
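ADP-Glo luminescence measured ADP generated by PI4K2A enzyme (4 ug/mL before mixing) with 1.2 mM PI substrate (pre-mix) and 300 microM ATP (pre-mix). Tris pH7.5 buffer with MgCl2, Triton X-100; 1 h reaction at ambient temperature.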
G9a block: qHTS Assay for Inhibitors of Histone Lysine Methyltransferase G9a | Histone-lysine N-methyltransferase EHMT2 (Homo sapiens), Q96KQ7 | G9a H3K9 monomethylation, AlphaScreen, 2 h | Potency, µM (titrated, usually from 102 µM), without a hit: at the top dose activity, negative = inhibition, usual class: inhibitors | hit rate 8.8% among 350,000; further: potency means the concentration at half of the fitted maximal effect; on the % scale 0 is the no-effect control and ±100 the full control effect; nearly all actives have a fitted effect of over 75% in size
Target sequence (Q96KQ7 913-1193 limits assumed): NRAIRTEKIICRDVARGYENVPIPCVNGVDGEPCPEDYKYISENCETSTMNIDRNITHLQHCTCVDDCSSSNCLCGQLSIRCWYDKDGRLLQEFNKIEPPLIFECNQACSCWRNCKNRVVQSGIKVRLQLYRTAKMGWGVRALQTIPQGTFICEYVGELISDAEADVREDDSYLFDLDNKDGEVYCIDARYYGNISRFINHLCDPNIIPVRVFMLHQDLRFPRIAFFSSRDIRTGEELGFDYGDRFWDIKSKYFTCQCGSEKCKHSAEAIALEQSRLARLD
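Readings reflect AlphaScreen signal from monomethyl-H3K9 antibody detection. HMT at 20 nM; substrate b-H3K9 500 nM; cofactor SAM 20 uM; 2 h RT reaction; compounds tested as titrations in qHTS with 15 min preincubation.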
GLS inhibitor: qHTS for Inhibitors of Glutaminase (GLS). Glutaminase kidney isoform, mitochondrial (Homo sapiens), O94925. GLS enzymatic activity, qHTS titration. Potency, µM (doses to about 45.5 µM), for inactives: at the top dose activity change, negative = inhibition, most hits filed as inhibitors. hit rate 0.21% among 410,000; further: potency means the concentration at half of the fitted maximal effect; on the % scale 0 is the no-effect control and ±100 the full control effect
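Compounds were pin-transferred onto hKGA, after which L-glutamine (1 mM solution) and a detection mix of glutamate oxidase, HRP and Amplex Red were added. Initial and 30 min RT fluorescence reads were collected.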
ERG Ets-DNA blk: qHTS for Small Molecule Inhibitors of the ERG Ets/DNA interaction | Potency, µM (doses to about 76.9 µM), for the others: at the top dose FP activity, negative = inhibition, actives largely listed as inhibitors | fluorescence polarization, His-ERG Ets domain / labelled DNA | Transcriptional regulator ERG (Homo sapiens), P11308 | hit rate 0.028% among 370,000; active means well fitted inhibition curve with a large enough effect in the polarisation, with a control signal flat; inconclusive means small, poorly fitted or top-dose-only effect, or effect the other way, or a change in a side signal; inactive means no such curve, though single readings can be large or run the other way; the % refers to the polarisation;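 further: polarization taken with two DNA probes labelled with fluorescein and Texas red; potency means the concentration at half of the fitted maximal effect; % of control where 0% means no effect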
Target sequence (P11308 whole entry, looked up, the tested form may be a part): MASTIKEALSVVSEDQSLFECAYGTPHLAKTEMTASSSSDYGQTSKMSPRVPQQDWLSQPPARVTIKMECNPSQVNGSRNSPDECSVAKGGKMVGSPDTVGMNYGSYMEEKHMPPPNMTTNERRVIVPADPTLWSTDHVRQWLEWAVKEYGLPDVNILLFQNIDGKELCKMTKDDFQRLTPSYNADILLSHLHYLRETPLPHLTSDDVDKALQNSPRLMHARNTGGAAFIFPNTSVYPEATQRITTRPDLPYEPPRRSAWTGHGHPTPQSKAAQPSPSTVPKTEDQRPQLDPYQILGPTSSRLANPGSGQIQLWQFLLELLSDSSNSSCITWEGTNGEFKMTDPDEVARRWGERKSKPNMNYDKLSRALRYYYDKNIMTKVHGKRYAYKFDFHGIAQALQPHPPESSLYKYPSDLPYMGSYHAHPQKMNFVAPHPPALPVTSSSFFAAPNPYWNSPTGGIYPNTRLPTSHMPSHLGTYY
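His-tagged ERG Ets domain (1 uM in the protein solution; 300mM KCl, 50mM Tris-HCl, 1mM EDTA, 1mM DTT, pH 7.5) received compound, then a probe mix of 5 nM fluorescein-DNA and 100nM Texas-615-DNA. Fluorescence polarization was read for both dyes.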
PGK inhibitor: qHTS Assay to Find Inhibitors of Phosphoglycerate Kinase | Phosphoglycerate kinase, glycosomal (Trypanosoma brucei brucei), P07378 | PGK/GAPDH coupled, Kinase-Glo luminescence, 60 min | Potency, µM (highest dose often 57.5 µM), for the others: top-dose activity change, negative = inhibition, usual class: inhibitors | hit rate 0.043% among 380,000 | AID 602233, 2012; further: potency means the concentration at half of the fitted maximal effect; on the % scale 0 is the no-effect control and ±100 the full control effect; nearly all actives have a fitted effect of over 60% in size
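Recombinant glycosomal PGK reaction used 1,3-bisphosphoglycerate generated in-well by GAPDH (100nM final) in 100mM TEA pH 7.6, 5mM MgCl2, 0.01% Tween-20. After 60 minutes at room temperature, ATP was read by Kinase-Glo Plus luminescence end-point.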
* marks the source's active call; other numbers are inactive results; i = inactive; ? = inconclusive; · = not tested or not shown; & = joins results of further samples; [ ] = another dose, or the depositor's remark. Unless noted, the call rests on the fitted dose curve; in most records, active means well fitted curve in the direction sought with a large enough effect; inconclusive means small, poorly fitted or top-dose-only effect, or another doubt; inactive means no such curve, though single readings can be large; an effect the other way counts as inactive or inconclusive. Some of the compounds tested, so the mix of outcomes need not match the whole.

SMILES	Pin1 inh	PI4K2A block	G9a block	GLS inhibitor	ERG Ets-DNA blk	PGK inhibitor
O=C(CN1CCN(C2CCCCC2)CC1)Nc1cccc2ccccc12	-6%	0	11µM*	-8%	7%	-2%
CC(=O)c1cnc2c(C(=O)O)cnn2c1C	-11%	-1	?	-1%	·	-3%
COc1ccc(C(=S)N2CCN(c3ccccc3C)CC2)cc1OC	1%	-5	·	15%	?	i
S=C(NCc1ccccc1)NNc1nc2ccccc2[nH]1	-22%	-2	2.8µM*	-27%	-5%	-6%
COc1ccc(C(=O)N2CCN(Cc3ccccc3C)CC2)cc1OC	4%	-6	?	7%	3%	-10%
COc1ccc(CN2CCc3ccccc3C2)c(OC)c1OC	-7%	5	45µM*	12%	4%	-5%
C/C(CCC1CC(C)OC1=O)=N\NC(N)=S (stereo not drawn)	-7%	4	1.1µM*	5%	15%	-9%
Cc1ccccc1NC(=O)CSc1ccc2nnc(-c3ccccn3)n2n1	-3%	1	8%	3%	-1%	-11%
COc1cc2ccccc2ccc1=NO	5%	2	·	-5%	?	-1%
CCOCCCNCc1ccc(OC)c(OC)c1	-5%	-1	?	-3%	7%	-1%

Look-ups from the results shown.
For ERG Ets-DNA blk, `COc1ccc(C(=O)N2CCN(Cc3ccccc3C)CC2)cc1OC` is listed with 3%
For Pin1 inh, `COc1ccc(CN2CCc3ccccc3C2)c(OC)c1OC` is listed with -7%

(further entries)
SMILES	Pin1 inh	PI4K2A block	G9a block	GLS inhibitor	ERG Ets-DNA blk	PGK inhibitor
CN(C)CCN(Cc1ccccc1)c1nccc(N(C)C)c1C#N	-3%	1	4µM*	-4%	·	·
CC(=O)Nc1ccc(Sc2ccccc2C(=O)O)cn1	0%	-10	?	-4%	-3%	-2%
COc1ccc(C2=NNC(=O)C2(C)Br)cc1 (stereo not drawn)	6%	-6	·	5%	·	i
CC1CC(C)CN(CC(=O)NC(c2ccccc2)c2ccccc2)C1 (stereo not drawn)	2%	-2	14µM*	-2%	3%	-6%
O=S(=O)(c1ccc(F)cc1)N1CCN(CC(O)COCC2CCCO2)CC1 (stereo not drawn)	1%	6	16µM*	9%	20%	-9%
CCN1CCN(Cc2nc(N)nc(Nc3ccc(C)c(C)c3)n2)CC1	-3%	2	?	-2%	0%	-1%
O=C(c1ccc(N2CCCC2)c([N+](=O)[O-])c1)N1CCc2ccccc2C1	7%	2	28µM*	-2%	9%	-10%
Cc1ccc(C)c(Cn2c(C(=O)OC(C)C)cc3c2ccn3C)c1	0%	4	50µM*	2%	0%	-3%
CC(C)CCN(CCC(C)C)C(CO)(CO)CO	5%	-5	3.2µM*	0%	-7%	0%
CC1CN(C2CCN(C(=O)COc3ccccc3)CC2)CC(C)O1 (stereo not drawn)	0%	5	8.9µM*	-9%	6%	-1%
N#C/C(=C\c1ccc(OCc2ccccc2)cc1)C(=O)Nc1ccc(C(=O)O)cc1	?	-2	89µM*	-7%	-2%	-9%
C/C=C/c1ccc(OCCCCN2CC(C)CC(C)C2)c(OC)c1 (stereo not drawn)	-4%	2	2.2µM*	-3%	7%	i
COc1ccc(-c2cnc(NCc3ccc(C)cc3)n2C)cc1	-5%	1	3.5µM*	2%	12%	7%
O=C(COC(=O)c1cccs1)Nc1nnc(-c2ccccc2)o1	-4%	3	-24%[59 µM]	-3%	-3%	-4%
Fc1cccc(CN2CCN(c3ncccn3)CC2)c1	-1%	4	?	-2%	-3%	-2%
Nc1nc(CN2CCN(Cc3ccccc3)CC2)nc(Nc2ccccc2)n1	-3%	2	·	-2%	4%	i
O=C(CN1CCN(c2ccccn2)CC1)Nc1ccc(F)cc1	-2%	23	6.3µM*	-7%	-7%	-7%
COc1ccc(CN2CCN(S(=O)(=O)c3ccc(NC(C)=O)cc3)CC2)c(OC)c1OC	?	1&5	5µM*	-2%&0%	-13%&5%	-6%&-8%
O=C(C1CCCN(Cc2ccccc2)C1)N1CCc2ccccc2C1 (stereo not drawn)	-15%	6	8.9µM*	4%	0%	i
COc1cccc(CN(C)Cc2cc(=O)oc3cc(O)c(Cl)cc23)c1	-4%	-7	45µM*	19%	-4%	·
COc1ccc(Br)cc1CN1CCN(C(=O)c2ccc(F)cc2)CC1	0%	2	11µM*	4%	6%	1%
CCOc1cccc2sc(NN)nc12	3%	-15	13µM*	-23%	2%	-1%
O=C(COc1cccnc1[N+](=O)[O-])N1CCN(C(=O)c2ccco2)CC1	-10%	-15	8.9µM*	53%[activator]	14%	-11%
COc1ccccc1CNc1ncc(-c2ccc(F)cc2)n1C	-8%	6	?	-5%	-12%	-3%
COc1cc(OC)c(CN2CCCCCCC2)cc1Br	6%	8	?	12%	-7%	3%
CCN(Cc1ccncc1)Cc1ccc(OC)cc1OC	0%	-2	?	11%	13%	1%
CCCn1nnnc1NC(=O)COc1ccc(CC)cc1	-5%	-5	4%[59 µM]	-1%	-7%	-2%
Cc1ccc(NC(=O)CNCC(c2ccccc2)N(C)C)cc1F (stereo not drawn)	-8%	12	-123%[59 µM]	3%	-8%	i
Cc1ccc(S(=O)(=O)NNc2ccccc2)cc1	-4%	-7	?	8%	-15%	i
CN(C)CCOc1ccc(Cl)cc1C(C)(C)C	-13%	-5	8.9µM*	-2%	-1%	i
Nn1c(SCC(=O)Nc2nnc(-c3ccccc3)o2)nnc1C1CC1	-2%	-4	-3%	12%	3%	-11%
COc1ccc(Cl)cc1CSc1ncn[nH]1	4%	-1	22%	-7%	-4%	i
O=C(COc1ccc(Cl)cc1)Nc1nnc2n1CCS2	6%	-13	?	-6%	-6%	i
O=C(Nc1ccccc1Cl)O/N=C(/c1ccccc1)c1ccccn1	-2%	-1	-5%[0.0925 µM]	-7%	15%	-1%
Cc1cc(Br)ccc1OCCN1CC(C)OC(C)C1 (stereo not drawn)	-7%	-1	?	5%	4%	3%
Clc1ccc(SCCN2CCNCC2)cc1	-5%	-4	·	-1%	-1%	-6%
O=C(c1ccc(F)cc1)N1CCN(C2CCCCC2)CC1	2%	-2	32µM*	5%	-9%	0%
COc1ccc(CN(C)CC(=O)Nc2ccccc2C(F)(F)F)c(OC)c1	-5%	-3	3.5µM*	-3%	0%	-6%
N#Cc1nc(COc2ccc(-c3ccccc3)cc2)oc1NCCCN1CCOCC1	-2%	-1	?	5%	-8%	-1%
CC(C)[C@@H]1C=C(C(=O)O)O[C@H](OCCCCO)C1	-3%	-6	?	-2%	-9%	-2%
OCCN1CCN(C(=S)Nc2cccc(C(F)(F)F)c2)CC1	-6%&-16%	-12&-4	?	21%&-6%	2%&-4%	-2%
COc1ccccc1N1C(=O)C2C(C(=O)c3ccccc3)=NN(c3ccccc3OC)C2C1=O (stereo not drawn)	?	1	·	-16%	14%	-2%
CC(=O)c1c(C)[nH]c(C(=O)OCC(=O)Nc2nnc(-c3ccccc3)o2)c1C	5%	0	?	0%	-3%	-9%
Cc1ccccc1CN1CCc2nc(N3CCN(c4ncccn4)CC3)ncc2C1	11%	-2	?	4%	7%	3%
CCC(C)NCCCOc1ccc(C)cc1OC (stereo not drawn)	1%	-5	11µM*	-4%	?	-1%
O=C(NCc1cccs1)c1cccnc1C(=O)O	-4%	-2	?	-2%	-1%	3%
COc1cc(/C=C/C(=O)OCC(=O)Nc2nnc(-c3ccccc3)o2)cc(OC)c1OC	1%	5	7%[0.501 µM]	6%	-6%	0%
C=CCn1c(CNC(=O)c2ccccc2F)nnc1SCC(=O)N1CCOCC1	-7%	0	·	-2%	16%	i
CCOC(=O)c1cc2c(ccn2C)n1Cc1ccccc1C	-2%	0	?	13%	·	-3%[11.5 µM]
O=C(CCN1C(=O)S/C(=C\c2ccc(Cl)cc2)C1=O)Nc1ccc(C(=O)O)cc1	·	3	?	10%	12%	-16%

Remaining list, next part.
SMILES	Pin1 inh	PI4K2A block	G9a block	GLS inhibitor	ERG Ets-DNA blk	PGK inhibitor
Cc1cccc(N2CCN(c3cccc(C)c3)C2c2cccnc2)c1	-3%	0	?	1%	-1%	-8%
CN(CC(=O)NCc1ccccc1)Cc1cccc(F)c1	1%	-17	45µM*	-4%	-19%	i
Cc1c(OC(C)C(=O)N2C[C@H]3C[C@@H](C2)c2cccc(=O)n2C3)ccc2c3c(c(=O)oc12)CCC3 (stereo partly drawn)	6%	5	·	2%	-1%	7%
CCn1c(=O)n(CC)c2cc(N3CCCC3)c(NC(=O)c3cccc(Cl)c3)cc21	0%	-3	40µM*	?	9%	i
COc1ccc(-c2cc(OC(=O)c3ccccc3)c3c(C)oc(C)c3c(=O)c2)cc1OC	3%	-2	14µM*	12%	1%	0%
CCN1CCN(CCOc2ccccc2-c2ccccc2)CC1	-7%	4	10µM*	3%	-2%	1%
Cc1cc(Br)cc(C)c1OCCCCN(C)C	4%	-2	-2%[0.501 µM]	1%	0%	-6%
COc1ccccc1CNc1ncccn1	0%	4	·	-1%	1%	0%
Cc1cccc(CN2CCN(C(=O)c3ccccc3F)CC2)c1	-1%	4	?	-9%	-11%	-1%
Cc1cccc(NC(=O)CN2CCc3cc4c(cc3C2)OCCCO4)c1	-8%	2	7.9µM*	3%	-9%	-3%
O=C(O)C1CCc2sc3[nH]c(=S)n(-c4ccccc4)c(=O)c3c21 (stereo not drawn)	-3%	-2	2.5µM*	0%	0%	4%
OCCNCCOc1ccccc1-c1ccccc1	-4%	7	10µM*	-3%	6%	-2%
Cc1ccc(-c2csc3nc(C)n(-n4c(C)ccc4C)c(=O)c23)o1	13%	11	?	-18%	9%	-6%
O=C(O)c1ncsc1-c1ccccc1	-6%	1	14µM*	4%	2%	-8%
Cc1ccccc1CN1CCN(C(=O)c2cccc(F)c2)CC1	-2%	2	?	-3%	6%	-2%
CCCS(=O)(=O)N1CCN(C2CCC(C)CC2)CC1 (stereo not drawn)	3%	-2	·	8%	1%	7%
COc1ccc(Br)cc1CN1CCN(C(=O)c2cccc(OC)c2OC)CC1	1%	-3	?	1%	·	-6%
CC1CN(CCOc2ccccc2-c2ccccc2)CC(C)O1 (stereo not drawn)	2%	5	14µM*	7%	-7%	14%
CN(C)CCOCCOc1ccc(Cl)cc1Br	-1%	6	8.9µM*	-4%	7%	i

Shown with the structure last: entries from further up.
Pin1 inh | PI4K2A block | G9a block | GLS inhibitor | ERG Ets-DNA blk | PGK inhibitor | Compound
-2% | 2 | ? | -3% | 6% | -2% | Cc1ccccc1CN1CCN(C(=O)c2cccc(F)c2)CC1
3% | -2 | · | 8% | 1% | 7% | CCCS(=O)(=O)N1CCN(C2CCC(C)CC2)CC1 (stereo not drawn)
